# Vif TR-FRET: inhibitors of Vif binding to APOBEC3G peptide, primary screen, biochemical, TR-FRET, GST-Vif 1-94, biotin-A3G peptide, dose response retest (AID 1117319). TR-FRET GST-Vif / biotin-A3G peptide binding; higher % means a stronger effect; test concentration not given here; strong numbers were not always called active. one-dose inhibition, %; IC50 in µM for titrated hits. 260,000 tested, 0.57% active;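 active = above the screen mean plus three standard deviations and confirmed in dose response; inconclusive = results disagree or hit not tested in dose response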;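 also: Vif residues 1-94 fused to GST binding biotinylated APOBEC3G peptide 110-148; 0% = full assay without inhibitor and 100% = GST in place of GST-Vif; retest series ran down from 100 µM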
# Bfl-1 A1 inh: inhibitors of the anti-apoptotic protein A1, read as caspase activation | 330,000 tested, 0.066% active | caspase activation, % (test concentration not listed) | MEF A1-2A-BIM cells, Caspase-Glo 3/7 luminescence, 3 h; percent of clofoctol response, vehicle zero;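 active = over half of replicate activation scores above 10%, or exactly half above 10 with the replicate mean above 10; inconclusive = replicate mean below 10 yet half the replicates above 10; inactive = over half of replicates below 10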;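 also: wells of about 30 µL received 50 nL stock; many hits fall short of the cut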
# rRNA inh HTS: selective bacterial rRNA inhibition in E. coli; E. coli WT GFP vs humanized-ribosome RFP mutants, fluorescence, 24 h; active compounds read low; DMSO median 0, no signal -100; GFP signal change (wild-type ribosome), % (no concentration beside the values); 350,000 tested, 1.6% active; AID 720706;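 active = significant combined selectivity score with lowered wild-type GFP, culture density cut under 30%, mutant RFP and density less affected; inactive = any of these conditions unmet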; also: one replicate is shown; some compounds called inactive have numbers as strong as hits
# MLL AF4-AF9 inh: blocks AF4 peptide binding to human AF9; P42568; AlphaScreen, biotin-AF4 peptide binding to FLAG-AF9; inhibition, % at 10 µM; 350,000 tested, 0.47% active; AID 651704;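 active = every replicate reaching a set inhibition limit, whatever the replicate mean, cut at about 25% in these data; inconclusive = mean inhibition reaches that limit but some replicates miss it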;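 also: 0% = plate neutral control median and 100% = total signal loss; the record names both 10 and 1 µM as test concentration; the first replicate is given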
# Target sequence (P42568 whole entry, looked up): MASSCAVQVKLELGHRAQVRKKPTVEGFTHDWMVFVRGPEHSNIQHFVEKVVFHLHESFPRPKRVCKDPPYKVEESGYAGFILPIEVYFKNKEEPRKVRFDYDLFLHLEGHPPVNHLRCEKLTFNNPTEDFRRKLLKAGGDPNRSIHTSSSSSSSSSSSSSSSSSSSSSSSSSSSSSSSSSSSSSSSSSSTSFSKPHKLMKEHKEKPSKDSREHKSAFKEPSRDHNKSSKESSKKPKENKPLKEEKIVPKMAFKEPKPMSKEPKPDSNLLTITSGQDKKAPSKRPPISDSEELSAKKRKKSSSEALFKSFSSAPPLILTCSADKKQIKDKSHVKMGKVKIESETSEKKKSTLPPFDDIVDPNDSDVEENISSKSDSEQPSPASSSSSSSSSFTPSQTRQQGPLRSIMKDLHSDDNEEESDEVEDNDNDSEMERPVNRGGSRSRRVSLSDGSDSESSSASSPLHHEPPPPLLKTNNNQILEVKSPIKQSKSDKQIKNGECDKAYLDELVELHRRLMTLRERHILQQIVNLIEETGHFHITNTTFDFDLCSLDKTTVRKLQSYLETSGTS
# Beta apoptosis: beta cell apoptosis inhibition; protection from apoptosis, % (test concentration not listed); 300,000 tested, 0.8% active; INS-1E cytokine-induced death, ATP luminescence, 48 h; percent of positive-control rescue, neutral wells zero;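 active = all replicates at 75% or more, or half of them and the mean; inconclusive = half reach 75% but not the mean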;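 also: 0% = cytokine-treated negative control wells and 100% = positive control rescue; higher means more ATP so stronger rescue from cytokine killing; wells of about 40 µL received 100 nL stock; the first replicate is given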
# Calb FLC: affects C. albicans growth with fluconazole; C. albicans CaCi-2 (fluconazole-resistant clinical isolate) + fluconazole, Alamar Blue growth, 48 h; growth inhibition, % (test concentration not listed); 300,000 tested, 0.57% active; AID 1979;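 active = most replicates above 75%; inconclusive = exactly half above 75%; inactive = most below 75%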;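 also: all wells also contain fluconazole at 8 µg/ml as a sub-toxic cotreatment; 0% = median of DMSO wells and 100% = median of geldanamycin control wells; wells of about 8 µL received 7.5 nL stock; the first replicate is given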
# RanGTP-Impb inh: inhibitors of RanGTP-importin-beta interaction, primary screen, biochemical, FRET, CFP-Ran, YFP-importin-beta, homogeneous; cell-free CFP-Ran/YFP-importin-beta FRET ratio; inhibition, % (no concentration beside the values); 300,000 tested, 1.1% active; AID 2216;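 active = most replicates above 15%; inconclusive = exactly half above 15%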;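 also: 0% = DMSO wells and 100% = Ran loaded with GDP instead of GTP; wells of about 40 µL received 100 nL stock; the first replicate is given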
# T cruzi inh: blocks replication of Trypanosoma cruzi; T. cruzi beta-gal in NIH3T3, luminescence, 90 h; inhibition, % (concentration not given with the values); 300,000 tested, 1.4% active; AID 1885;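 active = mean inhibition across valid replicates above about 55%, limit read from the data; inconclusive = mean below that limit but half or more replicates reach it; inactive = mean below it, under half of replicates reach it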;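 also: signal also drops with host cell toxicity which is not excluded here; 0% = plate median of DMSO wells and 100% = zero luminescence signal; higher percent means less beta-gal luminescence so fewer parasites; stock transfer was 50 nL into about 50 µL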
# rRNA inh HTS OD600: also measured in rRNA inh HTS; calls as there; OD600 change, %; measured here: OD600 growth;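 optical density of the mix in the first replicate; 0 = DMSO median and -100 = no signal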
# rRNA inh HTS RFP: recorded beside rRNA inh HTS, whose call it bears; RFP signal change, %; measured here: RFP humanized mutant strains;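 first replicate; 0 = DMSO median and -100 = no signal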
# * = called active by the depositor; ? = inconclusive; nt = not tested or not shown.
# The line under a structure holds: Calb FLC	Vif TR-FRET	rRNA inh HTS OD600	MLL AF4-AF9 inh	Bfl-1 A1 inh	Beta apoptosis	rRNA inh HTS	T cruzi inh	RanGTP-Impb inh	rRNA inh HTS RFP
> CN1CCN(c2nc(-c3ccc(Cl)cc3)cc(=O)[nH]2)CC1
    -3	nt	1	3.2	0.0	-4	1	6	?	2.5
> Cc1no[n+]([O-])c1COc1ccc(/C=C2\NC(=S)NC2=O)cc1
    4	8%	nt	nt	0.1	-6	nt	-35	-0.2	nt
> N#Cc1ccc(C(CC(=O)O)N2Cc3ccccc3C2=O)cc1 (stereo not given)
    1	4%	7	-1.5	-0.1	-1	6	1	3.8	-1.5
> CN(C)c1nc(SCCOC(=O)COc2ccc(Cl)cc2Cl)nc(N(C)C)n1
    34	0%	nt	nt	0.8	-10	nt	-9	3.2	nt
> COc1ccc(N(CC(=O)N2CCN(c3ccccc3F)CC2)S(=O)(=O)c2ccc(C)cc2)cc1
    4	0%	-10	1.7	0.3	nt	-7	6	?	5.2
> O=C(O)c1ccc(NC2=C(n3nnc4ccccc43)C(=O)c3ccccc3C2=O)cc1
    14	6%	-14	-6.7	-0.3	-5	-5	3	5.9	5.2
> CC1=CC(=C(C#N)c2nc3ccccc3s2)C=C(C)N1c1ccc(F)cc1
    1	-6%	2	-8.6	-0.5	6	14	41	-30	-4.1
> Cc1cc(C)cc(NC(=O)COC(=O)c2cc(C)oc2C)c1
    -19	nt	21	-0.4	0.5	-1	11	-4	0.2	-3.7
> CCN(Cc1ccccc1)CC(O)COc1ccccc1 (stereo not given)
    -2	1%	nt	nt	0.5	2	nt	8	5.7	nt
> CCCc1[nH]n(-c2ccc([N+](=O)[O-])cc2)c(=O)c1C=NCCCn1ccnc1
    -6	3%	-4	6.5	-3.2	nt	-11	6	-4.5	-4.0
> COc1ccc(CC(=O)NC2CCS(=O)(=O)C2)cc1 (stereo not given)
    2	2%	9	-0.4	?	-2	5	-7	-1.8	-0.9
> CC1CCCC(C)N1C(=O)COC(=O)c1cc(S(=O)(=O)N2CCOCC2)ccc1Cl (stereo not given)
    -6	-1%	-7	-1.2	0.4	2	-5	10	6.6	-0.1
> COc1ccc(Nc2nc(-c3ccccc3O)nc3ccccc23)cc1
    50	-3%	-11	-4.1	0.1	21	-11	30	1.3	3.1
> COc1ccc2c3c(c(=O)oc2c1OCC(N)=O)CCCC3
    1	-2%	nt	nt	0.5	-5	nt	-5	5.0	nt
> COc1ccc(NC(=O)CNC(=O)c2nn(-c3ccc(OC)c(Cl)c3)c(=O)c3ccccc23)c(OC)c1
    29	1%	-5	-3.3	-0.7	25	-1	29	0.8	0.5
> CC1(C)SC(=S)N(/N=C/c2ccc(O)cc2)C1N(O)C(=O)Nc1ccc([N+](=O)[O-])cc1 (stereo not given)
    -3	3%	nt	nt	-0.6	0	nt	1	0.4	nt
> CCn1cc(C(=O)NCc2ccco2)c(=O)c2cc(S(=O)(=O)N3CCCC3)ccc21
    -4	5%	7	4.6	-1.4	5	4	10	-3.1	-3.4
> COc1ccc(CCN=C(N)NS(=O)(=O)c2cccs2)cc1OC
    16	nt	11	0.9	0.6	10	11	-12	0.3	4.4
> O=C(Nc1cccnc1)c1ccc(Cl)c(S(=O)(=O)N2CCCCC2)c1
    -4	nt	-17	0.0	0.8	0	-17	-11	-3.4	1.6
> CCc1nc(SCC(=O)N2CCCC2)c2c(=O)n(C)c(=O)n(C)c2n1
    5	nt	1	-0.2	1.5	-8	6	22	2.4	7.3
> O=C(c1cccs1)N1CCC(c2nc3c(nnn3Cc3cccc(Cl)c3)c(=O)[nH]2)CC1
    12	nt	-52	-6.7	0.3	-1	-16	10	1.2	-1.0
> COC(=O)N/C(C)=C1/NC(=O)c2ccccc2C(c2ccccc2)N1 (stereo not given)
    1	-5%	nt	nt	-0.2	-2	nt	-13	-0.9	nt
> CCOCCCNC(=O)c1cn(C)c(=O)c2cc(OC)c(OC)cc12
    -4	-9%	nt	nt	0.0	3	nt	-13	1.6	nt
> CCNc1cccc2c1C(=O)N(C)C2=O
    26	-5%	8	-2.2	-0.2	-3	15	-3	-159	-1.3
> CCn1cc(C(=O)NCc2ccc3c(c2)OCO3)c2cc(OC)c(OC)cc2c1=O
    -4	67%	nt	nt	-0.7	-1	nt	8	0.4	nt
> N/C(=N\NC(=O)c1ccc(Cl)cc1)c1cnccn1
    -1	1%	-29	0.7	-0.8	-1	-22	-15	0.8	-6.4
> Cn1cc(S(=O)(=O)N2CCC(Cc3ccccc3)CC2)c(=O)n(C)c1=O
    0	3%	-5	-3.3	-0.5	1	-6	-1	-1.9	-6.2
> COc1cc(C)c(CNc2ccc(OC)c(OC)c2)cc1C
    -3	18%	nt	nt	0.1	8	nt	31	1.7	nt
> O=c1oc2cc(O)c(Cl)cc2c2ccccc12
    0	-238%	nt	nt	0.2	-3	nt	-19	0.6	nt
> c1cncc(-c2nc(NCc3ccco3)c3ccccc3n2)c1
    8	4%	nt	nt	-0.5	-7	nt	34	-1.4	nt

# Look-ups from the list:
# For Vif TR-FRET, CN(C)c1nc(SCCOC(=O)COc2ccc(Cl)cc2Cl)nc(N(C)C)n1 is entered as 0%
# For Vif TR-FRET, COc1ccc(Nc2nc(-c3ccccc3O)nc3ccccc23)cc1 is entered as -3%

# Further structures:
# The line under a structure holds: Calb FLC	Vif TR-FRET	rRNA inh HTS OD600	MLL AF4-AF9 inh	Bfl-1 A1 inh	Beta apoptosis	rRNA inh HTS	T cruzi inh	RanGTP-Impb inh	rRNA inh HTS RFP
> N#Cc1nc(Cc2ccccc2)oc1N1CCN(c2cccc(Cl)c2)CC1
    11	9%	0	4.7	-0.4	3	3	24	-4.2	-1.0
> O=C1CN(C(=O)/C=C/c2ccc(Br)cc2)CCN1
    -3	-1%	9	-8.5	0.1	-1	7	-7	-4.2	-0.5
> CCN(CC(=O)Nc1cc(Cl)ccc1C)C(=O)C1COc2ccccc2O1 (stereo not given)
    nt	1%	-11	1.6	0.2	-5	1	nt	nt	-5.0
> NCCCn1cnc2ccccc21
    0	5%	2	1.0	0.0	-4	5	-20	0.5	-14
> O=C(Nc1nccs1)c1nc(-c2ccccc2)n(-c2ccccc2)n1
    -1	-31%	nt	nt	0.5	2	nt	2	-0.3	nt
> CC(CCO)Nc1nc2c([nH]1)c(=O)n(C)c(=O)n2C (stereo not given)
    -1	-4%	nt	nt	0.9	-2	nt	-16	0.9	nt
> O=C(Nc1nnc(-c2ccccc2)o1)Nc1ccc(F)cc1F
    ?	-8%	4	-1.9	0.9	1	11	-27	-2.1	0.8
> Cc1ccc2cc(CCNC(=O)c3ccco3)c(=O)[nH]c2c1C
    7	29%	-29	4.1	-1.3	2	-14	2	-0.7	19
> O=C(CCNC(=O)c1ccccc1Cl)Nc1nc2ccccc2[nH]1
    nt	-7%	3	-1.7	1.5	0	6	nt	nt	-4.0
> O=C(Nc1ccc(Oc2ccccc2)cc1)N[C@@H](Cc1ccccc1)C(=O)O
    0	nt	-36	-1.6	0.2	-5	-24	2	-4.1	-13
> Cc1ccccc1C(=O)N1CCN(c2nc(N3CCOCC3)nc(N3CCOCC3)n2)CC1
    11	-1%	nt	nt	-0.2	2	nt	6	4.6	nt
> NC(=O)[C@@H]1CCCN1Cc1nc(Cc2cccc(C(F)(F)F)c2)no1
    -4	2%	7	-2.1	-0.7	2	5	8	6.2	0.8
> O=[N+]([O-])c1ccc(/C=C/C2=NN(c3ccccc3)C(c3ccco3)C2)o1 (stereo not given)
    -3	-12%	-46	-6.9	nt	nt	-42	61*	2.7	2.8
> CCC(C)(C(=O)NC1CCCCC1)N(Cc1ccco1)C(=O)c1ccccn1 (stereo not given)
    -1	9%	nt	nt	-0.8	-5	nt	-5	-0.4	nt
> Cn1nc(-c2ccccc2)c(C(O)c2ccc(Cl)cc2)c1Cl (stereo not given)
    -48	4%	nt	nt	0.0	-2	nt	-3	0.0	nt
> COc1cccc(NC(=O)CN(C2=NC3CS(=O)(=O)CC3S2)c2cccc(C)c2)c1 (stereo not given)
    -2	nt	-6	-0.5	-0.1	-29	-5	9	1.5	0.0
> O=C(Cn1cc([N+](=O)[O-])cn1)Nc1nc2ccccc2s1
    1	0%	-6	-1.1	0.8	1	-1	10	5.2	-0.1
> O=C1C2C3C=CC(C2C(=O)N1C1CCCCC1)C1C(=O)N(C2CCCCC2)C(=O)C31 (stereo not given)
    4	5%	nt	nt	0.9	4	nt	-9	0.2	nt
> O=C(Nc1ccncc1)c1ccc(NS(=O)(=O)c2ccc3[nH]c(=O)[nH]c3c2)cc1
    -28	nt	6	1.2	0.6	-3	9	-23	0.6	0.6
> O=C(Nc1cccc(C(=O)O)c1)/C(=C/c1ccccc1)NC(=O)c1cccc(Br)c1
    8	nt	3	-1.0	0.1	nt	-7	-17	-1.2	3.0
> CCN1CCN(C(=O)C(C)Nc2ccc(OC)cc2OC)CC1 (stereo not given)
    -7	11%	-4	26*	0.0	6	2	13	-3.0	3.3
> O=C(NCCCN1CCN(c2ccccc2F)CC1)C1CCC(=O)N1C1CCCCC1 (stereo not given)
    -7	2%	-1	4.6	0.6	-3	-7	18	1.9	-2.8
> O=C(O)c1cccc(NC(=O)c2ccc(Cl)c(S(=O)(=O)N3CCCCCC3)c2)c1
    -2	2%	0	-3.3	-6.9	-3	-3	2	7.8	3.8
> CC1CC(CCN)(c2ccccc2)C(C)CN1C (stereo not given)
    -16	-4%	10	1.2	0.6	-4	12	0	0.5	-0.1
> Cc1cc2[nH]cnc2c([N+](=O)[O-])c1C
    ?	25%	9	-1.0	0.0	-3	-1	-10	2.7	-6.4
> CCOc1ccc(C(=O)Nc2cccc(-n3cnnn3)c2)cc1OCC
    -13	nt	-9	-1.9	-1.4	-1	0	46	0.5	1.0
> O=C(CCCO)CCCCCCCCC[C@H]1N[C@H](CO)[C@@H](O)[C@@H]1O
    7	-5%	-8	1.9	0.9	-5	8	-6	-3.0	12
> CN(Cc1ccc(Cl)cc1)C(=O)c1ccc(S(=O)(=O)NCc2ccco2)cc1
    nt	?	-11	-0.5	-0.3	4	5	nt	nt	-2.6
> CCC(=O)Nc1ccc(S(=O)(=O)NCC2CCCO2)cc1 (stereo not given)
    -8	1%	nt	nt	0.2	-4	nt	1	-1.1	nt
> Cc1cc2occ(CC(=O)N(C)CC(=O)Nc3c(C)cccc3C)c2cc1C
    3	2%	-6	-2.0	0.1	-3	-4	-3	3.6	3.2

# Compound activity from PubChem.

# These rows are one share of the data; rates above refer to the full screens.
